Cruzain inh Det = qHTS Assay for Promiscuous and Specific Inhibitors of Cruzain (with detergent); AID 1478, 2009; Potency, µM, inactives show max response, negative = inhibition, most hits filed as inhibitors; purified cruzain, Z-FR-AMC fluorescence, 0.01% Triton; Cruzipain (Trypanosoma cruzi), P25779; actives 0.43% (n = 200,000);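 note: plate controls were neutral wells for no effect and buffer without enzyme for full effect; nearly all actives have a fitted effect of over 40% in size; top concentration of the series not given in the record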
Target sequence (P25779 123-467 limits assumed): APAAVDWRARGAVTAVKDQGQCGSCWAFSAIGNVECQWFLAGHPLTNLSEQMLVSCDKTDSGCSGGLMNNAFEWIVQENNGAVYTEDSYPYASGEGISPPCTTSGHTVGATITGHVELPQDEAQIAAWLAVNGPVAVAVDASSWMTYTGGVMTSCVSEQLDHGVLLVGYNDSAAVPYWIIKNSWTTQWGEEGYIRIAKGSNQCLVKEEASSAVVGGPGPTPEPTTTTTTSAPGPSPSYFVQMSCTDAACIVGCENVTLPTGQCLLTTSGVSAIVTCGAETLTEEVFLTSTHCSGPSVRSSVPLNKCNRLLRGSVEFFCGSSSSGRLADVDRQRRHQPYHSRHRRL
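15 min RT preincubation of 1.5 nM cruzain with compound, then 2 uM Z-FR-AMC added; kinetic AMC fluorescence, 60 s delta. Triton X-100 0.01%, pH 5.5.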
SARS PLP yeast = qHTS of Yeast-based Assay for SARS-CoV PLP; S. cerevisiae expressing SARS-CoV PLpro, growth rescue; control for the full effect not named in the record; Potency, µM (highest dose often 32.9 µM), for inactives: top-dose activity, positive = growth rescue; actives 0.19% (n = 330,000); AID 485353, 2010; active means well fitted rising curve with a large enough effect; inconclusive means small, poorly fitted or top-dose-only effect; inactive means no such curve, though single readings can be large or run the other way; note: 0% is about no effect; nearly all actives have a fitted effect of over 55% in size; growth read by luminescence after 48 h
Cruzain noTriton = qHTS Assay for Promiscuous and Specific Inhibitors of Cruzain (without detergent); actives 2.3% (n = 200,000); purified cruzain, Z-FR-AMC fluorescence, no detergent; Cruzipain (Trypanosoma cruzi), P25779; Potency, µM, inactives show max response, negative = inhibition, actives largely listed as inhibitors;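 note: plate controls were enzyme without inhibitor for no effect and buffer without enzyme for full effect; nearly all actives have a fitted effect of over 40% in size; top concentration of the series not given in the record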
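Purified cruzain at 1.5 nM, pre-incubated 15 min with compound at room temperature in 100 mM sodium acetate pH 5.5, 5 mM DTT, 0.00005% Triton X-100. Reaction started with 2 uM Z-FR-AMC; AMC fluorescence increase over 60 s gives rate.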
MARV entry inh = qHTS for inhibitors of binding or entry into cells for Marburg Virus. Marburg virus pseudotyped entry inhibition, cell reporter; control for the full effect not named in the record; about a third of the inactives were read at about 46 µM. actives 1.8% (n = 300,000). Potency, µM (top dose mostly 37.8 µM), for inactives: at the top dose activity change, negative = inhibition, actives largely listed as inhibitors; active = well fitted inhibition curve with a large enough effect; inconclusive = small, poorly fitted or top-dose-only effect, or effect the other way; inactive = flat fitted curve, though single readings scatter; tested in HEK293 cells; about a fifth of its hits are not listed in these tables; note: % is set by controls: 0 for no effect and ±100 for the full control effect; luciferase read-out
2A StopGo = High Throughput Screening for Foot and Mouth Disease Virus Antivirals; human cells with a luciferase reporter of 2A StopGo recoding; control for the full effect not named in the record; Potency, µM (series often up to 57.9 µM), for inactives: at the highest dose signal change, negative = less light; actives 1.2% (n = 410,000); AID 1159524, 2015; active = well fitted falling curve with a large enough effect; inconclusive = small, poorly fitted or top-dose-only effect; inactive = no such curve, though single readings can be large or run the other way; tested in HEK293T cells; note: % is set by controls: 0 for no effect and ±100 for the full control effect; nearly all actives have a fitted effect of over 45% in size; luciferase light after 4 h
RE007 growth inh = qHTS Assay for Inhibitors of the HIV-1 protein Vpr; S. pombe RE007 Vpr strain, BacTiter-Glo ATP luminescence, 24 h; control for the full effect not named in the record; Potency, µM (highest dose often 92.2 µM), for inactives: at the top dose activity change, negative = less growth; actives 0.21% (n = 360,000); active = well fitted falling curve with a large enough effect; inconclusive = small, poorly fitted or top-dose-only effect; inactive = no such curve, though single readings can be large or run the other way;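 note: % is set by controls: 0 for no effect and ±100 for the full control effect; nearly all actives have a fitted effect of over 50% in size; the assay follows cell death caused by Vpr and the record does not say whether a fall means rescue or toxicity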
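Fission yeast strain RE007, carrying one chromosomally integrated HIV-1 vpr copy, was seeded at OD 0.01 in PMG+AL medium with 23 nL pinned compound. After 24 h at 30 °C and 99% humidity, viability was read by BacTiter-Glo luminescence.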
Lassa entry inh = qHTS for Inhibitors of binding or entry into cells for Lassa Virus. Lassa virus pseudotype entry inhibition, cell reporter; control for the full effect not named in the record. Potency, µM (doses to about 37.9 µM), for the others: at the highest dose activity change, negative = inhibition, most hits filed as inhibitors. actives 1.2% (n = 300,000). AID 540256, 2011; active means well fitted inhibition curve with a large enough effect; inconclusive means small, poorly fitted or top-dose-only effect, or effect the other way; inactive means flat fitted curve, though single readings scatter; tested in HEK293 cells; note: % is set by controls: 0 for no effect and ±100 for the full control effect; nearly all actives have a fitted effect of over 50% in size; luciferase read-out
NS1 inh = qHTS Assay for Inhibitors of Influenza NS1 Protein Function; actives 0.4% (n = 270,000); S. cerevisiae slowed by influenza A NS1, growth recovery by OD600; Potency, µM (highest dose often 46.1 µM), inactives show top-dose activity, positive = more growth; AID 2326, 2010; active means well fitted rising curve with a large enough effect; inconclusive means small, poorly fitted or top-dose-only effect; inactive means no such curve, though single readings can be large or run the other way; note: nearly all actives have a fitted effect of over 50% in size
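S. cerevisiae expressing influenza A NS1, grown in glucose, washed, then diluted 1:100 into pH 6.0 -URA galactose medium with 23 nl compound. Growth recovery read as OD600; NS1-free strain serves as control.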
Starred values were filed as active, the others as inactive; ? = inconclusive; . = not tested or not shown; & = joins results of further samples; [ ] = dose if it differs, or a comment. Unless noted, calls come from the whole dose curve; as a rule, active = well fitted curve in the direction sought with a large enough effect; inconclusive = small, poorly fitted or top-dose-only effect, or another doubt; inactive = no such curve, though single readings can be large; an effect the other way counts as inactive or inconclusive. Potency is the fitted concentration of half-maximal effect. Rows were taken by chance; 4.6% or so of the library scored in one or more.

SMILES	Cruzain inh Det	SARS PLP yeast	Cruzain noTriton	MARV entry inh	2A StopGo	RE007 growth inh	Lassa entry inh	NS1 inh
COc1ccccc1OCC(=O)NCCSCc1ccc(Cl)cc1	-12.3%	-1.2%	10.6%	-15.1%	0.0%	-13.0%	5.9%	-28.4%
CN(C(=O)Cn1nnc(-c2ccc(S(C)(=O)=O)cc2)n1)c1ccccc1	-2.1%	.	-7.7%	6.2%[46.1 µM]	-12.2%	.	-1.5%[46.1 µM]	.
O=C(NC(=S)Nc1ccccc1N1CCOCC1)c1sc2ccccc2c1Cl	0.7%	9.9%	10µM*	1.6%	0.0%	-6.1%	-0.1%	10.5%
COc1ccccc1NC(=O)COc1ccc(/C=N/NS(=O)(=O)c2ccc(C)cc2)cc1	-3.0%	-9.7%	-28.3%	1.4%	64.8%[activator]	-1.3%	-10.4%	3.7%
COc1ccc(C(=O)c2c(-c3cccc(C)c3)oc3ccc(N4CCOCC4)cc23)cn1	.	-6.2%	.	.	3.0%	15.8%	.	20.6%
O=C(CSc1cn(CC(=O)N2CCCC2)c2ccccc12)NCC1CCCO1 (stereo not given)	.	-1.0%	.	6.5%[46.1 µM]	10.9%	-1.5%	.	.
CCN(CC)S(=O)(=O)c1ccc(NC(=O)C(C)N(c2ccc(OC)cc2)S(C)(=O)=O)cc1 (stereo not given)	-2.2%	-3.6%	6.2%	-29.6%	-15.1%	1.2%	?	-15.4%
Clc1nc2sccn2c1/C=N/n1cnc2ccccc21	-2.3%	?	8.8%	-8.6%	.	3.4%	27.0%	-10.5%
O=C1CN(CC(=O)N2CCCCC2)c2ccccc2O1	2.7%	-24.5%	1.5%	11.3%	18.1%	?	1.9%	-216.1%
O=C(Nc1ccc(N2CCN(Cc3ccccc3)CC2)cc1)c1ccccc1[N+](=O)[O-]	.	0.6%	.	.	-15.6%	-16.8%	.	6.8%
CCN(CC(=O)NC(C)(C)C)C(=O)CCl	3.1%	7.0%	-16.6%	?	?	9.4%	-10.9%	4.1%
Cc1cccc(NC2=Nc3ccccc3N3C2=Nc2c(c(C)nn2-c2ccccc2)C3c2ccc(O)c(O)c2)c1 (stereo not given)	6.5%	3.2%	-28.1%	-26.7%&-26.7%	-21.7%	0.0%	?	3.55µM*
Nc1nnnn1/N=C/c1ccco1	-3.1%	9.7%	-4.2%	-12.6%	15.0%	-0.5%	-10.2%	-3.1%
O=C(Nc1ccncc1)c1ccc2c(c1)C(=O)N(CC1CCCO1)C2=O (stereo not given)	-1.2%	7.3%	-1.3%	10.9%	?	4.5%	-5.9%	2.7%
COc1ccc(/C=N/Nc2nc(-c3ccc(C)cc3)c(NC(C)=O)s2)cc1OC	.	1.2%	.	-23.5%	55.6%[activator]	-10.6%	10.8%	?
CCCCSc1nc(C)cc(SCC(=O)N/N=C/c2cccc(OC)c2O)n1	-3.8%	?	1.7%	?	-11.5%	-11.0%	?	-48.5%
C=C(C)CNC(=S)Nc1ccc(S(=O)(=O)Nc2cnc3ccccc3n2)cc1	.	-1.4%	.	.	21.5%	13.0%	.	1.3%
O=C(/C=C/c1ccccc1)Oc1cccc2cccnc12	.	-5.6%	.	.	21.2%	?	.	-54.7%
O=C(O)CCC(=O)N1CCc2cc(S(=O)(=O)N3CCC(Cc4ccccc4)CC3)ccc21	-2.4%	0.7%	?	1.3%	-8.1%	3.4%	.	-62.5%
CCc1ccc(NC(=O)c2noc3c2CCc2ccccc2-3)cc1	-5.6%	4.8%	6.9%	?	18.3%	-13.3%	12.9%	-5.6%
COC(=O)c1cc(NS(=O)(=O)c2cc(Br)cc3c2N(C(C)=O)CC3)cc(C(=O)OC)c1	-2.4%	.	12.8%	.	39.9%[activator]	.	28.1%[46.1 µM]	.
OCCC1CN(Cc2nc3c(s2)CCCC3)CCN1Cc1ccccc1 (stereo not given)	.	-1.2%	.	.	-11.9%	-0.3%	.	-4.2%
O=C(Cn1c(=O)ccc2cc(S(=O)(=O)N3CCCC3)ccc21)NCc1ccc(F)cc1	-1.8%	.	-4.0%	.	?	.	-28.4%[46.1 µM]	.
CC(C)(CC1(C)NC(=O)NC1=O)OCc1ccccc1 (stereo not given)	.	.	.	-2.5%	0.8%	2.0%	-4.1%	.
Cc1ccc(C2=NN(CC(=O)NCCC(C)C)C(=O)CC2)cc1	0.0%	0.2%	?	.	5.4%&-5.9%	-17.1%	1.9%[46.1 µM]	-5.8%
SMILES	Cruzain inh Det	SARS PLP yeast	Cruzain noTriton	MARV entry inh	2A StopGo	RE007 growth inh	Lassa entry inh	NS1 inh
COc1cc(/C=C/C(=O)OCC(=O)NCc2ccco2)ccc1OCC#N	.	-1.6%	.	8.8%[46.1 µM]	-16.1%	0.6%	-26.2%	.
CCN(CCO)Cc1csc2cccc(Br)c12	4.3%	4.1%	-7.3%	-3.2%	-1.1%	-0.7%	-0.3%	6.8%
Cc1ccc(NC(=O)CSc2nnc(CCCCCNC(=O)OC(C)(C)C)o2)c(C)c1	-1.9%	9.5%	?	12.1%	?	3.1%	0.7%	-5.2%
NC(=O)C1CCN(C(=O)c2cn(-c3ccccc3)nc2-c2cccnc2)CC1	.	0.6%	.	7.5%	6.2%	-7.2%	3.0%	.
CSc1ccc(CN2CCC(C(=O)NCc3ccc(C)cc3)CC2)cc1	.	0.4%	.	16.4µM*	-19.9%	-27.8%	?	-2.1%
Cc1cc(OCC(=O)NCc2ccccn2)c2c(C)c(Cc3ccccc3)c(=O)oc2c1	.	7.2%	.	-1.1%[46.1 µM]	14.3%	-6.5%	-3.8%[46.1 µM]	7.8%
O=C(Cc1ccc(Cl)c(Cl)c1)N1CCCC[C@H]1CN1CCCC1	-3.0%	.	6.6%	?	-24.1%	.	.	.
O=C(Nc1cccc([N+](=O)[O-])c1)c1ccc2ccccc2c1O	.	0.0%	.	?	8.3%	-14.1%	?	3.7%
CCc1c(C)c2cc(Cl)c(O)c(CN(CC)CC)c2oc1=O	?	0.2%	?	5.1%	-4.8%	-3.2%	8.9%	0.5%
COc1ccccc1Nc1ccc(NC(=O)c2cccc([N+](=O)[O-])c2C)cc1	.	-4.0%	.	.	?	-20.5%	.	14.7%
O=C(NC1CC1)c1ccc(S(=O)(=O)NCC2CCCCC2)cc1	-1.0%	8.4%	?	-28.7%	.	11.8%	3.7%	-7.2%
CC1(C)Nc2ccccc2C(=O)N1NS(=O)(=O)c1ccccc1	-2.9%	-1.2%	-2.4%	2.5%	-9.1%	3.8%	6.6%	5.7%
O=C1CSC(c2ccco2)N1 (stereo not given)	-1.3%	8.7%	4.4%	-1.5%	-1.5%	8.7%	-16.5%	0.0%
Cc1cccc(N(C(=O)c2csnn2)C(C(=O)NCc2ccccc2)c2ccc(C)o2)c1 (stereo not given)	.	1.6%	.	?	19.1%	1.8%	-30.0%[46.1 µM]	8.6%
Cc1ccc(S(=O)(=O)NC(Cc2ccccc2)C(=O)O)cc1C (stereo not given)	.	0.5%	.	13.0%	10.3%	52.6%	14.7%	3.8%
COc1ccc(C(=O)COC(=O)CN2C(=O)NC3(CC(C)CC(C)(C)C3)C2=O)c(OC)c1 (stereo not given)	.	-0.7%	.	-3.3%	-6.7%	15.9%	3.3%	.
O=C(Nc1ccccc1Cl)NC1(C(=O)NCc2ccncc2)CCCCC1	.	2.1%	.	-11.5%[46.1 µM]	8.9%	1.2%	4.0%[46.1 µM]	-2.5%
O=C(O)C1CCCCC1C(=O)Nc1nc(-c2ccc(Cl)s2)cs1 (stereo not given)	.	8.9%	.	?	-4.2%	2.5%	2.6%[46.1 µM]	.
Cc1cc(O)cc(=O)n1C	.	0.9%	.	0.8%[46.1 µM]	-8.9%	2.8%	-18.3%[46.1 µM]	.
Cc1[nH]c2ccccc2c1C(=O)COC(=O)c1ccc2c(=O)n3c(nc2c1)CCC3	.	2.0%	.	.	-22.1%	4.7%	.	3.1%
COc1ccc(C)cc1NC(=O)CSc1nnc(CC(=O)Nc2cccc(C(F)(F)F)c2)n1C	-6.1%	-8.9%	?	5.3%	2.3%	10.1%	?	3.8%
CCCCN(CCCNC(=O)CN1C(=O)COc2ccccc21)c1ccccc1	-4.2%	1.1%	14.9%	?	.	10.2%	-5.8%	-21.2%
CC(C)Sc1nc(N)nc2c1ncn2C1OC(CO)C(O)C1O (stereo not given)	.	.	.	?	0.7%	1.8%	10.1%[46.1 µM]	.
c1ccc(-c2ccc(OCCN3CCOCC3)cc2)cc1	.	-4.0%	.	.	44.2%[activator]	-8.3%	.	-15.3%
CC(O)CNC(=S)Nc1ccccc1 (stereo not given)	.	0.8%	.	0.7%	9.8%	0.1%	20.0%	2.4%
SMILES	Cruzain inh Det	SARS PLP yeast	Cruzain noTriton	MARV entry inh	2A StopGo	RE007 growth inh	Lassa entry inh	NS1 inh
CCOc1ccc(S(=O)(=O)N(CC)CC(=O)NCc2ccccn2)cc1C	.	1.1%	.	11.9%[46.1 µM]	5.2%	-2.8%	-23.6%	-1.9%
CC(=O)CSc1nsc(SCC(C)=O)c1C#N	-11.3%	-10.2%	-9.3%	-0.9%[46.1 µM]	17.4%	5.1%	0.8%	18.8%
CCc1c(C)[nH]n(CCC#N)c1=O	2.4%	0.8%	4.0%	?	17.1%	-8.2%	4.6%	-11.6%
O=C(c1ccccc1NS(=O)(=O)c1ccc(F)cc1)N1CCOCC1	.	15.2%	.	?	-5.6%	13.1%	6.8%	3.5%
Cc1ccc(C)c(NC(=O)CN(C)C(=O)c2ccc(Cl)nc2)c1	.	-0.9%	.	0.2%[46.1 µM]	-6.9%	7.3%	-22.6%[46.1 µM]	1.0%
Cc1ccc(N2CC(C(=O)NC3=NCCS3)CC2=O)cc1C (stereo not given)	1.2%	25.9%	-9.3%	-19.1%	-15.2%	-28.9%	4.8%	2.8%
Cc1ccc2c(C)c(C(=O)N(Cc3ccc(N(C)C)cc3)C3CCS(=O)(=O)C3)oc2c1 (stereo not given)	.	-12.8%	.	.	-26.9%	0.1%	.	-34.9%

High-throughput results: PubChem, National Center for Advancing Translational Sciences (NCATS)
